Vaccinia inh: blocks a specific stage of Vaccinia orthopoxvirus infection, primary screen, cell-based, single point | Vaccinia-infected cells, mCherry/Venus stage reporter fluorescence; stronger effect = lower value; some inactives read as strong as hits | activity change (mCherry), % (test concentration not listed) | hit rate 0.01% among 89,000 | AID 1053133, 2014;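 active = mCherry past -33% and 40 or more points under the early reporter, replicates agreeing; inconclusive = past -33% without that gap or agreement; tested in A549 cells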;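 also: scaled between vehicle wells and reference inhibitor wells; 23 nL library stock went into each well; one replicate is shown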
Vaccinia inh Venus: also measured in Vaccinia inh; calls as there; activity change (Venus), %; measured here: Venus reporter, other viral stage;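 negative = less Venus signal; first of two replicates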
Starred values were filed as active, the others as inactive; ? = inconclusive; nt = no result given. This is a subset, so the mix of outcomes need not match the whole.

Structure | Vaccinia inh | Vaccinia inh Venus
CC(C)NC(=O)N(C)C[C@@H]1OCCCC[C@@H](C)Oc2ccc(NC(=O)Nc3cccc4ccccc34)cc2C(=O)N([C@@H](C)CO)C[C@H]1C | 8 | 6
C[C@H]1CN([C@@H](C)CO)C(=O)Cc2cc(NS(C)(=O)=O)ccc2O[C@@H]1CN(C)Cc1ccc(C(=O)Nc2ccccc2N)cc1 | 14 | 12
C[C@@H]1CN([C@H](C)CO)S(=O)(=O)c2ccc(C#CC3CC3)cc2O[C@H]1CN(C)C(=O)c1ccncc1 | 2 | -3
Cc1ccc(S(=O)(=O)N(C)C[C@H]2OCCCC[C@@H](C)Oc3ccc(NS(=O)(=O)c4c(C)noc4C)cc3C(=O)N([C@@H](C)CO)C[C@H]2C)cc1 | ? | nt
CCCNC(=O)C[C@@H]1C[C@H]2c3cc(NC(=O)Nc4ccc(OC)cc4)ccc3O[C@H]2[C@H](CO)O1 | 9 | 10
COc1ccc(S(=O)(=O)N(C)C[C@@H]2Oc3ccc(NC(=O)C4CCCCC4)cc3CC(=O)N([C@@H](C)CO)C[C@H]2C)cc1 | -23 | -18
C[C@@H]1CN([C@H](C)CO)C(=O)c2cc(NC(=O)CCCCCC(=O)Nc3ccccc3N)ccc2O[C@H]1CN(C)C | 35 | 28
N#C[C@H]1[C@H](c2ccc(-c3ccccc3F)cc2)[C@@H](CO)N1C(=O)C1CCC1 | ? | nt

(further entries)
Structure | Vaccinia inh | Vaccinia inh Venus
O=C(Nc1cc(F)ccc1F)N[C@@H]1C=C[C@H](CC(=O)N2CCc3ccccc3C2)O[C@@H]1CO | -21 | -18
COc1ccc(C#Cc2cnc3c(c2)C(=O)N([C@H](C)CO)C[C@H](C)[C@H](CN(C)S(=O)(=O)c2ccccc2)O3)cc1OC | 4 | 0
CC(C)NC(=O)Nc1ccc2c(c1)CC(=O)N([C@H](C)CO)C[C@H](C)[C@H](CN(C)S(=O)(=O)c1cn(C)cn1)O2 | 15 | 18
COc1ccc2c3c([nH]c2c1)[C@@H](CO)N(C(=O)C1CCCC1)CC31CN(C(=O)NC(C)C)C1 | 11 | 5
CO[C@@H]1CN(C)C(=O)c2ccc(NC(=O)Nc3ccccc3F)cc2OC[C@H](C)NC[C@@H]1C | -7 | -5
C[C@@H]1CN([C@H](C)CO)S(=O)(=O)c2ccc(C#CC3CC3)cc2O[C@@H]1CN(C)Cc1ccccn1 | -30 | -28
N#Cc1cccc(-c2ccc([C@H]3[C@H]4CN(C(=O)Cc5cccnc5)CCCCN4[C@H]3CO)cc2)c1 | ? | nt
O=C([C@H]1[C@H](CO)[C@H]2Cn3c(cccc3=O)[C@@H]1N2C(=O)c1ccccc1)N1CCCCC1 | 12 | 6

Additional compounds
Structure | Vaccinia inh | Vaccinia inh Venus
CCCC#Cc1ccc2c(c1)O[C@@H](CN(C)C(=O)c1ccccn1)[C@H](C)CN([C@H](C)CO)S2(=O)=O | -6 | -8
C[C@@H]1CN([C@@H](C)CO)C(=O)c2cc(NS(=O)(=O)c3cn(C)cn3)ccc2O[C@@H](C)CCCCO[C@@H]1CN(C)C(=O)CCCN(C)C | 6 | 2
N#C[C@H]1[C@H](c2ccccc2)[C@@H](CO)N1C(=O)c1ccc2c(c1)OCO2 | 14 | 9
CNC[C@@H]1Oc2ccc(NS(=O)(=O)c3ccc(C)cc3)cc2CC(=O)N([C@H](C)CO)C[C@H]1C | 1 | -2
O=S(=O)(NCC[C@H]1CC[C@@H](NS(=O)(=O)c2ccccc2Cl)[C@H](CO)O1)c1ccc(F)cc1 | -3 | -1
Cc1cccc(-c2ccc([C@H]3[C@H]4CN(S(=O)(=O)c5cccs5)CCCCN4[C@H]3CO)cc2)c1 | -8 | -7
COc1cccc(-c2ccc3c(c2)[C@H]2[C@H](CCN2S(=O)(=O)c2ccccc2OC)[C@H](CO)N3)c1 | -3 | -7
C[C@@H]1CN([C@@H](C)CO)C(=O)c2cc(NC(=O)CCC(F)(F)F)ccc2O[C@H]1CN(C)S(=O)(=O)c1ccc(F)cc1 | -1 | 10

2 entries picked at random from those above:
Structure | Vaccinia inh | Vaccinia inh Venus
C[C@@H]1CN([C@@H](C)CO)C(=O)c2cc(NS(=O)(=O)c3cn(C)cn3)ccc2O[C@@H](C)CCCCO[C@@H]1CN(C)C(=O)CCCN(C)C | 6 | 2
O=S(=O)(NCC[C@H]1CC[C@@H](NS(=O)(=O)c2ccccc2Cl)[C@H](CO)O1)c1ccc(F)cc1 | -3 | -1

The listing picks up, starting four compounds before the break.
Structure | Vaccinia inh | Vaccinia inh Venus
O=S(=O)(NCC[C@H]1CC[C@@H](NS(=O)(=O)c2ccccc2Cl)[C@H](CO)O1)c1ccc(F)cc1 | -3 | -1
Cc1cccc(-c2ccc([C@H]3[C@H]4CN(S(=O)(=O)c5cccs5)CCCCN4[C@H]3CO)cc2)c1 | -8 | -7
COc1cccc(-c2ccc3c(c2)[C@H]2[C@H](CCN2S(=O)(=O)c2ccccc2OC)[C@H](CO)N3)c1 | -3 | -7
C[C@@H]1CN([C@@H](C)CO)C(=O)c2cc(NC(=O)CCC(F)(F)F)ccc2O[C@H]1CN(C)S(=O)(=O)c1ccc(F)cc1 | -1 | 10
O=C(C1=C[C@H](c2coc3ccccc3c2=O)C[C@H](OCCCCO)O1)N1CCOCC1 | 18 | 11
C[C@H]1CN([C@@H](C)CO)C(=O)c2cc(-c3ccc(F)cc3)cnc2O[C@H]1CN(C)C(=O)Cc1ccccn1 | 7 | 5
Cc1ccc(S(=O)(=O)Nc2ccc3c(c2)C(=O)N([C@H](C)CO)C[C@@H](C)[C@H](CN(C)S(=O)(=O)c2ccc(F)cc2)OCCCC[C@@H](C)O3)cc1 | ? | nt
CCS(=O)(=O)N1[C@H](CO)[C@@H](c2ccccc2)C12CN(C(=O)C1CCCCC1)C2 | -1 | -5
COCC(=O)N1C[C@@H](C)[C@H](OC)CN(C)C(=O)c2ccc(NC(=O)C3CCC3)cc2OC[C@@H]1C | -2 | 3
Cc1noc(C)c1S(=O)(=O)N(C)C[C@@H]1OCCCC[C@H](C)Oc2ccc(NC(=O)NC(C)C)cc2C(=O)N([C@H](C)CO)C[C@@H]1C | -1 | -5
CC(=O)N(C)C[C@@H]1Oc2cc(-c3ccncc3)ccc2S(=O)(=O)N([C@@H](C)CO)C[C@@H]1C | 29 | 10
CC(C)NC(=O)Nc1ccc2c(c1)CC(=O)N([C@@H](C)CO)C[C@H](C)[C@@H](CN(C)C(=O)Nc1cccc3ccccc13)O2 | 8 | 8

The listing continues:
Structure | Vaccinia inh | Vaccinia inh Venus
COc1ccc(-c2cnc3c(c2)C(=O)N([C@@H](C)CO)C[C@H](C)[C@@H](CN(C)C(=O)C2CCCCC2)O3)cc1 | -6 | -12
O=C(C[C@H]1C=C[C@H](NC(=O)c2ccncc2)[C@H](CO)O1)Nc1ccccc1 | 9 | 4
C[C@@H]1CCCCO[C@@H](CN(C)C(=O)Nc2ccccc2)[C@@H](C)CN([C@@H](C)CO)C(=O)c2cc(NS(=O)(=O)c3ccc(F)cc3)ccc2O1 | -23 | -3
O=C(C1CCCC1)N1C[C@H]2[C@@H](c3ccccc31)[C@@H](CO)N2C(=O)c1ccccc1 | 10 | 13
C[C@H]1CN([C@@H](C)CO)C(=O)c2cccc(NC(=O)c3nc4ccccc4s3)c2O[C@H]1CN(C)Cc1ccncc1 | -2 | -1
O=C(N[C@H]1CC[C@H](CCNS(=O)(=O)c2cccc(Cl)c2)O[C@H]1CO)c1ccncc1 | 3 | 5
C[C@H](CO)N1C[C@H](C)[C@H](CN(C)Cc2ccc(C(=O)O)cc2)Oc2ccc(NS(=O)(=O)c3cccs3)cc2CC1=O | 10 | 11
CO[C@@H]1CN(C)C(=O)c2ccc(NC(C)=O)cc2OC[C@@H](C)N(CCc2ccccc2)C[C@H]1C | 4 | 8

(list continues)
Structure | Vaccinia inh | Vaccinia inh Venus
C[C@H](CO)N1C[C@H](C)[C@H](CN(C)Cc2cccc3c2OCCCO3)OCc2ccccc2-c2c(n(C)c3ccccc23)C1=O | ? | nt
COc1ccc2c3c([nH]c2c1)[C@@H](CO)N(Cc1cccnc1)CC31CCN(C(=O)c2cccnc2)CC1 | 17 | 13
COc1ccc(S(=O)(=O)Nc2ccc3c(c2)C(=O)N([C@H](C)CO)C[C@H](C)[C@@H](CN(C)S(=O)(=O)c2ccc(Cl)cc2)OCCCC[C@@H](C)O3)cc1 | -18 | -26
COc1ccc(S(=O)(=O)N(C)C[C@H]2Oc3ccc(NC(=O)Cc4ccccc4)cc3CC(=O)N([C@H](C)CO)C[C@H]2C)cc1 | 3 | 3
CC(C)CC#Cc1ccc2c(c1)O[C@H](CN(C)C(=O)Nc1ccccc1F)[C@@H](C)CN([C@H](C)CO)S2(=O)=O | ? | nt
CCNC(=O)c1cc2c(c(-c3cccc(-c4cccc(OC)c4)c3)n1)[C@@H](CCO)N([S@](=O)C(C)(C)C)C2 | -25 | -6
CCNC(=O)[C@@H]1[C@@H](CO)[C@@H]2Cn3c(ccc(-c4ccc(OC)cc4)c3=O)[C@@H]2N1Cc1nccs1 | -28 | -24
CC(=O)N(C)C[C@H]1Oc2ncc(-c3cncnc3)cc2C(=O)N([C@H](C)CO)C[C@H]1C | 12 | 8

Carrying on.
Structure | Vaccinia inh | Vaccinia inh Venus
C[C@H](CO)N1C[C@H](C)[C@@H](CN(C)C(=O)Cc2ccccc2)OCCCC[C@H](C)Oc2ccc(NC(=O)Nc3ccc4c(c3)OCO4)cc2C1=O | -8 | -3
COc1ccc(NC(=O)N(C)C[C@H]2Oc3ccc(NC(=O)CCCN(C)C)cc3C(=O)N([C@@H](C)CO)C[C@H]2C)cc1 | 15 | 8
COc1ccc(S(=O)(=O)Nc2ccc3c(c2)C(=O)N([C@@H](C)CO)C[C@@H](C)[C@@H](CN(C)Cc2ccc(Cl)c(Cl)c2)O3)cc1 | ? | nt
COc1ccc(S(=O)(=O)Nc2ccc3c(c2)C(=O)N([C@@H](C)CO)C[C@@H](C)[C@@H](CN(C)C)OCCCC[C@@H](C)O3)cc1 | 16 | 11
CO[C@@H]1CN(C)C(=O)c2ccc(NC(=O)C3CCC3)cc2OC[C@@H](C)NC[C@H]1C | 14 | 9
CS(=O)(=O)N1CC(=O)N2[C@H](C1)[C@H](c1ccc(C#Cc3ccccc3)cc1)[C@@H]2CO | ? | nt
Cc1ccccc1S(=O)(=O)N[C@@H]1CC[C@@H](CCn2cc(Cc3ccccc3)nn2)O[C@@H]1CO | 2 | 6
O=C(O)C1=C[C@@H](c2ccc(C(F)(F)F)cc2)C[C@@H](OCc2ccc(CO)cc2)O1 | 16 | 3

Further structures follow:
Structure | Vaccinia inh | Vaccinia inh Venus
Cc1ccc(NC(=O)C[C@H]2CC[C@H]3[C@@H](COc4ccc(NS(C)(=O)=O)cc4C(=O)N3C)O2)cc1 | 7 | 5
C[C@@H]1CN([C@H](C)CO)C(=O)c2cc(NC(=O)c3ccncc3)ccc2O[C@H]1CN(C)Cc1ccccc1 | 31 | 31
C[C@@H]1CN([C@@H](C)CO)C(=O)CCCn2nncc2CO[C@H]1CN(C)C(=O)Nc1ccccc1C(F)(F)F | 39 | 17
COc1cccc(NC(=O)N(C)C[C@H]2Oc3ncc(C#Cc4cccnc4)cc3C(=O)N([C@@H](C)CO)C[C@@H]2C)c1 | -4 | -9
O=C1CNC[C@@H]2[C@@H](c3ccc(C#CC4CCCCC4)cc3)[C@H](CO)N12 | 6 | 6
C[C@H]1CN([C@@H](C)CO)S(=O)(=O)c2ccc(C3=CCCCC3)cc2O[C@H]1CN(C)Cc1ccccc1 | -21 | -4
C[C@H]1CN([C@@H](C)CO)C(=O)c2cc(NC(=O)Nc3ccccc3)ccc2O[C@@H]1CN(C)C(=O)Nc1ccccc1 | 8 | 2
C[C@H](CO)N1C[C@H](C)[C@@H](CN(C)C(=O)Nc2ccc(F)cc2)Oc2ccc(NS(=O)(=O)c3ccc(Cl)cc3)cc2C1=O | 13 | 9

Next part:
Structure | Vaccinia inh | Vaccinia inh Venus
CO[C@H]1CN(C)C(=O)c2cc(NC(=O)c3ccccc3F)ccc2OC[C@H](C)N(CC2CCOCC2)C[C@@H]1C | -17 | -15
COc1ccc(NC(=O)Nc2cccc3c2O[C@@H](CN(C)C)[C@H](C)CN([C@H](C)CO)C3=O)cc1 | 11 | 10
CC(C)NC(=O)N1[C@@H]2CN(C(=O)Nc3ccc(F)cc3)c3ccccc3[C@@H]2[C@@H]1CO | 6 | 6
CO[C@@H]1CN(C)C(=O)c2ccc(NS(=O)(=O)c3cccc(F)c3)cc2OC[C@H](C)N(Cc2cc(F)ccc2F)C[C@@H]1C | ? | nt
O=C(Cc1ccccc1)N1CC2(C1)[C@@H](c1ccccc1)[C@@H](CO)N2C(=O)Cc1ccccc1 | 9 | 1
Cc1ccc(S(=O)(=O)N(C)C[C@@H]2Oc3cc(C4=CCCC4)ccc3S(=O)(=O)N([C@H](C)CO)C[C@@H]2C)cc1 | -23 | -19
C[C@@H]1CN([C@H](C)CO)C(=O)c2cc(Br)cnc2O[C@@H]1CN(C)Cc1cccc(F)c1 | -3 | -3
COC(=O)[C@@H]1[C@@H](CO)[C@@H]2Cn3c(ccc(-c4ccccc4)c3=O)[C@@H]2N1C(=O)C1CC1 | 7 | 3

Further compounds follow:
Structure | Vaccinia inh | Vaccinia inh Venus
CO[C@@H]1CN(C)C(=O)c2ccc(NC(=O)c3cnccn3)cc2OC[C@H](C)N(C(=O)C2CC2)C[C@H]1C | 16 | 11
C[C@@H]1CN([C@@H](C)CO)S(=O)(=O)c2ccc(C#CC3CC3)cc2O[C@@H]1CN(C)C(=O)c1cccc(F)c1 | -31 | -27
C[C@H](CO)N1C[C@H](C)[C@@H](CN(C)C(=O)c2ccncc2)OCCCC[C@H](C)Oc2ccc(NC(=O)Cc3ccccc3)cc2C1=O | 25 | 13
CCC(=O)N1CC[C@@H]2[C@@H](CO)N(C)c3ccc(-c4cccc(OC)c4)cc3[C@@H]21 | ? | nt
C[C@@H]1CN([C@@H](C)CO)C(=O)c2cc(NC(=O)C3CCCCC3)ccc2O[C@H]1CN(C)Cc1ccc(Cl)c(Cl)c1 | -12 | -6
CCNC(=O)C[C@H]1CC[C@H]2[C@@H](COC[C@@H](O)CN2C(=O)CC)O1 | 8 | 9

Source: PubChem (Broad Institute)
